SARS PLP yeast = inhibitors of SARS-CoV papain-like protease in yeast; S. cerevisiae expressing SARS-CoV PLpro, growth rescue; control for the full effect not named in the record; Potency, µM (top dose mostly 32.9 µM), inactives show at the top dose activity, positive = growth rescue; 330,000 tested, 0.19% active; AID 485353; active means well fitted rising curve with a large enough effect; inconclusive means small, poorly fitted or top-dose-only effect; inactive means no such curve, though single readings can be large or run the other way; note: 0% is about no effect; nearly all actives have a fitted effect of over 55% in size; growth read by luminescence after 48 h
NS1 inh = inhibitors of influenza NS1 protein function; S. cerevisiae slowed by influenza A NS1, growth recovery by OD600; Potency, µM (top dose mostly 46.1 µM), for inactives: at the top dose activity, positive = more growth; 270,000 tested, 0.4% active; AID 2326; active means well fitted rising curve with a large enough effect; inconclusive means small, poorly fitted or top-dose-only effect; inactive means no such curve, though single readings can be large or run the other way; note: nearly all actives have a fitted effect of over 50% in size
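A cell-based growth assay was used: compounds that relieve NS1-induced slow growth of budding yeast raise OD600. Assay medium was yeast nitrogen base with ammonium sulphate and -URA supplement, pH 6.0, with 2% galactose.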
Cruzain inh noDet = blocks cruzain activity in detergent-free assay; purified cruzain, Z-FR-AMC fluorescence, no detergent; AID 1476; P25779; 200,000 tested, 2.3% active; Potency, µM, for inactives: max response, negative = inhibition, hits mostly inhibitors;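 note: plate controls were enzyme without inhibitor for no effect and buffer without enzyme for full effect; nearly all actives have a fitted effect of over 40% in size; top concentration of the series not given in the record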
Target sequence (P25779 123-467 limits assumed): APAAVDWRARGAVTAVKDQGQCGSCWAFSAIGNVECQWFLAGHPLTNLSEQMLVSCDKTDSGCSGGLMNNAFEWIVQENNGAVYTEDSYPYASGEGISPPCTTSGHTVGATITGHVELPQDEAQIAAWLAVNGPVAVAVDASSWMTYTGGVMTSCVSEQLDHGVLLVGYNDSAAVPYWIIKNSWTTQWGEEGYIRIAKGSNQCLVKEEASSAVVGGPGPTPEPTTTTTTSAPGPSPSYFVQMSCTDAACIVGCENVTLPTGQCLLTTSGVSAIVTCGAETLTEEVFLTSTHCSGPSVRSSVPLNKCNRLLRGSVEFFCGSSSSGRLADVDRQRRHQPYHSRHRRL
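Purified cruzain at 1.5 nM, pre-incubated 15 min with compound at room temperature in 100 mM sodium acetate pH 5.5, 5 mM DTT, 0.00005% Triton X-100. Reaction started with 2 uM Z-FR-AMC; AMC fluorescence increase over 60 s gives rate.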
RE007 growth inh = less growth of the S. pombe RE007 Vpr strain | 360,000 tested, 0.21% active | AID 651644 | Potency, µM (series often up to 92.2 µM), without a hit: at the top dose activity change, negative = less growth | S. pombe RE007 Vpr strain, BacTiter-Glo ATP luminescence, 24 h; control for the full effect not named in the record; active = well fitted falling curve with a large enough effect; inconclusive = small, poorly fitted or top-dose-only effect; inactive = no such curve, though single readings can be large or run the other way;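 note: % is set by controls: 0 for no effect and ±100 for the full control effect; nearly all actives have a fitted effect of over 50% in size; the assay follows cell death caused by Vpr and the record does not say whether a fall means rescue or toxicity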
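Fission yeast strain RE007, carrying one chromosomally integrated HIV-1 vpr copy, was seeded at OD 0.01 in PMG+AL medium with 23 nL pinned compound. After 24 h at 30 °C and 99% humidity, viability was read by BacTiter-Glo luminescence.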
2A StopGo = lowers the luciferase signal of an FMDV 2A StopGo reporter; Potency, µM (series often up to 57.9 µM), without a hit: at the highest dose signal change, negative = less light; AID 1159524; 410,000 tested, 1.2% active; human cells with a luciferase reporter of 2A StopGo recoding; control for the full effect not named in the record; active = well fitted falling curve with a large enough effect; inconclusive = small, poorly fitted or top-dose-only effect; inactive = no such curve, though single readings can be large or run the other way; tested in HEK293T cells; note: % is set by controls: 0 for no effect and ±100 for the full control effect; nearly all actives have a fitted effect of over 45% in size; luciferase light after 4 h
Marburg entry inh = inhibitors of Marburg virus binding or cell entry; Marburg virus pseudotyped entry inhibition, cell reporter; control for the full effect not named in the record; about a third of the inactives were read at about 46 µM; Potency, µM (top dose mostly 37.8 µM), for inactives: top-dose activity change, negative = inhibition, most hits filed as inhibitors; 300,000 tested, 1.8% active; AID 540276; active = well fitted inhibition curve with a large enough effect; inconclusive = small, poorly fitted or top-dose-only effect, or effect the other way; inactive = flat fitted curve, though single readings scatter; tested in HEK293 cells; about a fifth of its hits are not listed in these tables; note: % is set by controls: 0 for no effect and ±100 for the full control effect; luciferase read-out
Cruzain inh Det = cruzain (T. cruzi) inhibition with detergent; P25779; purified cruzain, Z-FR-AMC fluorescence, 0.01% Triton; Potency, µM, inactives show max response, negative = inhibition, hits mostly inhibitors; 200,000 tested, 0.43% active;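 note: plate controls were neutral wells for no effect and buffer without enzyme for full effect; nearly all actives have a fitted effect of over 40% in size; top concentration of the series not given in the record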
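Z-FR-AMC hydrolysis (2 uM substrate) by cruzain (1.5 nM) monitored kinetically at ex 360/em 450 nm after 15 min room-temperature compound exposure; 0.01% Triton X-100, pH 5.5, 5 mM DTT.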
LASV entry inh = Lassa virus entry inhibition. Lassa virus pseudotype entry inhibition, cell reporter; control for the full effect not named in the record. Potency, µM (highest dose often 37.9 µM), without a hit: at the top dose activity change, negative = inhibition, most hits filed as inhibitors. 300,000 tested, 1.2% active. AID 540256; active means well fitted inhibition curve with a large enough effect; inconclusive means small, poorly fitted or top-dose-only effect, or effect the other way; inactive means flat fitted curve, though single readings scatter; tested in HEK293 cells; note: % is set by controls: 0 for no effect and ±100 for the full control effect; nearly all actives have a fitted effect of over 50% in size; luciferase read-out
* = called active by the depositor; [ ] = remark or other dose. Unless noted, calls come from the whole dose curve; as a rule, active = well fitted curve in the direction sought with a large enough effect; inconclusive = small, poorly fitted or top-dose-only effect, or another doubt; inactive = no such curve, though single readings can be large; an effect the other way counts as inactive or inconclusive. Potency is the fitted concentration of half-maximal effect. This is a random part of the collection (roughly 4.6% active in at least one column).

What do the screens show for `Cc1cnc(C(=O)Nc2ccc(F)c(F)c2)cn1`?
SARS PLP yeast: -10%; NS1 inh: -13%; Cruzain inh noDet: -3%; RE007 growth inh: -13%; 2A StopGo: 46%[activator]; Marburg entry inh: 11%; Cruzain inh Det: -9.5%; LASV entry inh: 16%

What do the screens show for `CC1CC(C)(C)NC(C)c2ccccc21` (stereo not drawn)?
SARS PLP yeast: 0%; NS1 inh: -4%; Cruzain inh noDet: -6%; RE007 growth inh: 4%; 2A StopGo: -14%; Marburg entry inh: -2%[46.1 µM]; Cruzain inh Det: 5.2%; LASV entry inh: 14%

Results for C=CCNc1ncnc2c1cnn2-c1ccc(Cl)cc1 ?
SARS PLP yeast: 22%; NS1 inh: -4%; Cruzain inh noDet: -11%; RE007 growth inh: -5%; 2A StopGo: 0%; Marburg entry inh: inconclusive; Cruzain inh Det: 0.3%; LASV entry inh: 7%

What do the screens show for `CCOC(=O)C(NC(C)=O)C(OC(C)=O)c1cccc([N+](=O)[O-])c1` (stereo not drawn)?
SARS PLP yeast: 2%; NS1 inh: -3%; Cruzain inh noDet: -6%; RE007 growth inh: 9%; 2A StopGo: 0%; Marburg entry inh: 1%; Cruzain inh Det: 3.8%; LASV entry inh: 7%

Results for CC(=O)c1ccccc1OCC(O)CNC1CCCC1 (stereo not drawn) ?
SARS PLP yeast: 1%; NS1 inh: -12%; RE007 growth inh: -2%; 2A StopGo: -1%

What do the screens show for `COc1ccccc1Oc1ncnc2c1cnn2-c1ccccc1`?
SARS PLP yeast: -3%; RE007 growth inh: -4%; 2A StopGo: 9%; Marburg entry inh: 12%[46.1 µM]; LASV entry inh: 10%

Results for O=C(CNC(=O)Cc1ccccc1)NCC(=O)OCc1ccccc1 ?
SARS PLP yeast: 3%; NS1 inh: -59%; Cruzain inh noDet: 7%; RE007 growth inh: 15%; 2A StopGo: 25%; Marburg entry inh: -32%; Cruzain inh Det: 6.7%; LASV entry inh: inconclusive

How did Cc1nn(CC(C)C)c(=S)[nH]c1=O do in these assays?
SARS PLP yeast: -1%; NS1 inh: -1%; Cruzain inh noDet: -5%; RE007 growth inh: -4%; 2A StopGo: -7%; Marburg entry inh: 4%; Cruzain inh Det: -1.2%; LASV entry inh: -4%

What do the screens show for `CCOC(=O)c1c(NC(=O)CN2C(=O)NC3(CCCCC3C)C2=O)sc(C(=O)N(C)C)c1C` (stereo not drawn)?
SARS PLP yeast: -8%; RE007 growth inh: 9%; 2A StopGo: 4%; Marburg entry inh: 3%[46.1 µM]; LASV entry inh: 12%

Results for CCc1ccc(NC(=O)N2CCN(Cc3cc(=O)n4nc(-c5ccccc5OC)sc4n3)CC2)cc1 ?
Cruzain inh noDet: 11%; 2A StopGo: -22%; Cruzain inh Det: 2.1%; LASV entry inh: 3%[46.1 µM]

How did CC(C)c1nnc(NC(=O)Cc2cccs2)s1 do in these assays?
SARS PLP yeast: -2%; NS1 inh: -1%; Cruzain inh noDet: -2%; RE007 growth inh: -7%; 2A StopGo: 5%; Cruzain inh Det: -1.4%

What do the screens show for `COc1ccc(-c2csc(-c3c(N)c(C(=O)c4ccccc4)n4ccccc34)n2)cc1`?
Cruzain inh noDet: inconclusive; 2A StopGo: 16%; Marburg entry inh: 1%[46.1 µM]; Cruzain inh Det: 1.6%; LASV entry inh: 18%[46.1 µM]

Results for COc1ccc(CNC(=O)C2CCCN2S(=O)(=O)c2ccccc2)cc1 (stereo not drawn) ?
SARS PLP yeast: -4%; NS1 inh: 6%; Cruzain inh noDet: 9%; RE007 growth inh: -6%; Marburg entry inh: -6%; Cruzain inh Det: 4.9%; LASV entry inh: -8%

Results for COc1ccc(C)cc1NC(=O)CN1CCCN(S(=O)(=O)c2ccc(Br)cc2)CC1 ?
SARS PLP yeast: -19%; NS1 inh: -21%; RE007 growth inh: -14%; 2A StopGo: inconclusive; Marburg entry inh: inconclusive; LASV entry inh: inconclusive

What do the screens show for `COc1cccc(S(=O)(=O)Nc2ccc(C(=O)Nc3ccncc3)cc2)c1`?
SARS PLP yeast: 6%; NS1 inh: 13%; Cruzain inh noDet: 3%; RE007 growth inh: -7%; 2A StopGo: -6%; Marburg entry inh: inconclusive; Cruzain inh Det: -12%; LASV entry inh: inconclusive

Results for O=C(Nc1cccc(C(F)(F)F)c1)c1cccc(NS(=O)(=O)c2ccc(Br)c(C(=O)O)c2)c1 ?
SARS PLP yeast: 0%; RE007 growth inh: 7%; 2A StopGo: -10%; Marburg entry inh: -1%; LASV entry inh: inconclusive

What do the screens show for `CCOC(=O)c1c(C(=O)OCC)c(C)n(N2C(=O)CSC2=S)c1C`?
SARS PLP yeast: 2%; NS1 inh: 7%; Cruzain inh noDet: 15%; RE007 growth inh: 1%; 2A StopGo: -25%; Marburg entry inh: 11%; Cruzain inh Det: -7.0%; LASV entry inh: 0%

Results for Cc1cc(C)cc(C(=O)Nc2ccc(NC(=O)Cc3ccccc3)cc2)c1 ?
SARS PLP yeast: 1%; NS1 inh: 0%; RE007 growth inh: 6%; 2A StopGo: 3%

How did CCN1CCN(CC(=O)N2N=C(c3cccs3)CC2c2ccc(F)cc2)C(=O)C1=O (stereo not drawn) do in these assays?
SARS PLP yeast: -3%; RE007 growth inh: 0%; 2A StopGo: 9%; Marburg entry inh: 7%; LASV entry inh: -2%

How did COc1ccccc1NC(=O)COC(=O)c1cc(C)oc1C do in these assays?
SARS PLP yeast: -5%; RE007 growth inh: 4%; 2A StopGo: -4%; Marburg entry inh: 1%[46.1 µM]; LASV entry inh: 0%[46.1 µM]

Results for Cc1ccc(C(=O)NC(=S)NNC(=O)COc2ccc([N+](=O)[O-])cc2)cc1 ?
SARS PLP yeast: 1%; NS1 inh: -26%; RE007 growth inh: 37%; 2A StopGo: -7%; Marburg entry inh: 6%[46.1 µM]; LASV entry inh: 10%

What do the screens show for `O=C(CCNC(=O)c1ccc([N+](=O)[O-])cc1)N/N=C/c1ccc(F)cc1`?
SARS PLP yeast: 1%; NS1 inh: 6%; RE007 growth inh: 1%; 2A StopGo: -6%

What do the screens show for `Cc1ccccc1NC(=O)CN1C(=O)C2(SCC(=O)N2c2ccc(F)cc2)c2ccccc21` (stereo not drawn)?
Cruzain inh noDet: -15%; 2A StopGo: -28%; Cruzain inh Det: -2.6%; LASV entry inh: -15%[46.1 µM]

What do the screens show for `COc1ccc(CNS(=O)(=O)c2c(C(=O)N3CCCCC3)c(C)n(C)c2C)cc1`?
SARS PLP yeast: 1%; NS1 inh: 1%; RE007 growth inh: 1%; 2A StopGo: 44%[activator]; Marburg entry inh: 22%[46.1 µM]; LASV entry inh: 2%[46.1 µM]

How did CCc1ccc(NCc2cc3c(C)nn(-c4ccccc4)c3[nH]c2=O)cc1 do in these assays?
SARS PLP yeast: -16%; NS1 inh: -87%; Cruzain inh noDet: 1%; RE007 growth inh: -25%; Marburg entry inh: -30%; Cruzain inh Det: -4.1%; LASV entry inh: -8%

Results for CCOC(=O)C1=C(c2ccccc2)OC(N)=C(C#N)C1C1CCCCC1 (stereo not drawn) ?
SARS PLP yeast: 8%; NS1 inh: -1%; Cruzain inh noDet: 7%; RE007 growth inh: 4%; 2A StopGo: -31%; Marburg entry inh: inconclusive; Cruzain inh Det: -12%; LASV entry inh: -28%

What do the screens show for `CCCN(CC(=O)Nc1ccc(C)cc1Br)CC(=O)Nc1ccc(F)c(F)c1F`?
SARS PLP yeast: inconclusive; NS1 inh: -15%; Cruzain inh noDet: 23%; RE007 growth inh: -8%; 2A StopGo: -7%; Marburg entry inh: inconclusive; Cruzain inh Det: -14%; LASV entry inh: -13%

Results for CN(C)c1cccc(C(=O)OCC(=O)N(Cc2ccccc2)C2CCS(=O)(=O)C2)c1 (stereo not drawn) ?
SARS PLP yeast: -1%; NS1 inh: 5%; RE007 growth inh: 13%; 2A StopGo: 8%; Marburg entry inh: 2%[46.1 µM]; LASV entry inh: -24%[46.1 µM]

How did CCC(NC(=O)c1cc(COc2cncc(Cl)c2)on1)c1ccc(C)cc1 (stereo not drawn) do in these assays?
SARS PLP yeast: 8%; NS1 inh: -39%; RE007 growth inh: 2%; 2A StopGo: -11%; Marburg entry inh: inconclusive; LASV entry inh: -21%

Results for CCOP(=O)(OCC)OCC ?
SARS PLP yeast: 5%; Cruzain inh noDet: -9%; RE007 growth inh: -1%; 2A StopGo: -22%; Cruzain inh Det: 2.0%

Results for Cn1c(=O)n(C)c2cc(NC(=O)c3cccc([N+](=O)[O-])c3)c(Br)cc21 ?
SARS PLP yeast: 1%; RE007 growth inh: -1%; 2A StopGo: -26%; Marburg entry inh: inconclusive; LASV entry inh: inconclusive

How did Brc1cccc(C2Nc3cccc4cccc(c34)N2)c1 do in these assays?
SARS PLP yeast: -2%; NS1 inh: 3%; RE007 growth inh: 36%; 2A StopGo: -14%; Marburg entry inh: -1%[46.1 µM]; LASV entry inh: 21%[46.1 µM]

How did Cc1ccc(NC(=O)Cn2cc(S(=O)(=O)N3CCCC3)c(S(=O)(=O)N3CCCC3)c2)cc1F do in these assays?
Cruzain inh noDet: 0%; 2A StopGo: 29%; Cruzain inh Det: -5.6%; LASV entry inh: 29%[46.1 µM]

How did CCn1c2ccccc2c2cc(NC(=O)COC(=O)c3ccccc3O)ccc21 do in these assays?
SARS PLP yeast: -1%; NS1 inh: 1%; RE007 growth inh: -12%; 2A StopGo: -1%; Marburg entry inh: -26%[46.1 µM]; LASV entry inh: inconclusive

How did COCCn1c(=O)[nH]c2cc(C(=O)NCCN3CCN(c4cccc(Cl)c4)CC3)ccc2c1=O do in these assays?
SARS PLP yeast: -1%; NS1 inh: 3%; Cruzain inh noDet: -1%; RE007 growth inh: 13%; 2A StopGo: inconclusive; Marburg entry inh: inconclusive; Cruzain inh Det: -3.9%; LASV entry inh: inconclusive

Source: PubChem BioAssay (National Center for Advancing Translational Sciences (NCATS))
